From PubChem BioAssay
MEX-5 binding = C. elegans MEX-5 TCR-2 RNA binding activity. Q9XUB2. MEX-5/FITC-TCR2 RNA binding, fluorescence polarization; active compounds read low. activity score (negative = inhibition of binding), % at 10 µM. 300,000 tested, 0.38% active. AID 1832;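 active = inhibition past about -25% in most replicates, and total fluorescence under double the plate's negative control median, limit read from the data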;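 note: 0% = DMSO and -100% = 5 µM competing unlabeled TCR2 RNA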
Fam108B inh = Fam108B inhibition, counter-screen for RBBP9 inhibitors; 300,000 tested, 0.33% active; recombinant Fam108B, FP-Rh probe fluorescence polarization; inhibition, % at 9.51 µM;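 active = inhibition above the screen mean inhibition plus 3 SD, computed separately per campaign, cut at about 18% in these data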;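 note: inhibitors lower polarization as less probe binds the enzyme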
AHR activator = activators of human aryl hydrocarbon receptor; AID 2796; activation, % at 5 µM; AHR-responsive luciferase reporter cells, luminescence; 320,000 tested, 2.5% active; in the data active = activation above about 47%;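 note: 0% = vehicle wells and 100% = reference agonist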
GLD-1 TGE inh = GLD-1-TGE RNA interaction inhibition (C. elegans); 320,000 tested, 0.44% active; inhibition, % at 5.96 µM; Q17339; purified GLD-1 + fluorescein TGE RNA, fluorescence polarization;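 active = percent inhibition above a per-plate cutoff, the plate mean of test compounds plus 3 SD, cut at about 30% in these data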;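 note: 0% = DMSO wells with GLD-1 and probe and 100% = wells lacking GLD-1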
PME-1 inh = PME-1 (human) inhibition | inhibition, % at 5.9 µM | 320,000 tested, 0.53% active | recombinant PME-1, FP-Rh probe fluorescence polarization;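 active = inhibition above the campaign mean of all compounds plus 3 SD, cut at about 26% in these data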;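 note: competitive labeling of PME-1 active site by serine hydrolase directed probe; 0% = PME-1 with DMSO and 100% = wells lacking PME-1 enzyme; inhibitors block probe labeling so polarization falls and inhibition rises; many of its hits are not listed in these tables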
Target sequence (Q9Y570 whole entry, looked up): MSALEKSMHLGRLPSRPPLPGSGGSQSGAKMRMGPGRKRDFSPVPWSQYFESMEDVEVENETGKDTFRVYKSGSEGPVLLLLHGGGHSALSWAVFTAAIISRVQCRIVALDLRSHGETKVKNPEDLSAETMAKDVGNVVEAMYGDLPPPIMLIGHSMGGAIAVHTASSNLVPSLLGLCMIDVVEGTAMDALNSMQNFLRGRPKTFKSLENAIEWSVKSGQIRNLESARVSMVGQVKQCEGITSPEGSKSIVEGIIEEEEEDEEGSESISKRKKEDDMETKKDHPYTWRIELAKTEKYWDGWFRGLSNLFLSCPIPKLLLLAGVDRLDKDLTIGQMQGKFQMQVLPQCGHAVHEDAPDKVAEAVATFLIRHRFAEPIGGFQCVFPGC
Numbers without * were called inactive; x = no result given. Some of the compounds tested. The share of hits here may be higher or lower than overall.

The first 17 records (preview)
SMILES	MEX-5 binding	Fam108B inh	AHR activator	GLD-1 TGE inh	PME-1 inh
COc1ccc(C(=O)NC(=S)Nc2ccc3c4c(cccc24)CC3)cc1OC	-1.7	-3.4	14.1	-0.1	-0.7
CCOC(=O)C1CCN(Cc2ccc(OC)c(C)c2OC)CC1	-4.8	-1.4	0.4	4.3	-2.2
COc1ccc(NC(=O)c2sc(N)nc2-c2ccccc2)cc1	1.4	-1.8	17.5	2.7	-0.6
O=C(O)CCCCCCCCCC(=O)c1cccs1	-0.5	0.4	-0.5	-8.1	2.6
CC(C)c1ccc(OCC(=O)NC(=S)Nc2ccc3c4c(cccc24)CC3)cc1	-1.7	-0.1	2.6	10.4	-6.8
CCOC(=O)c1cc(C(=O)OCC)c(=O)[nH]c1N1CCCC1	2.2	1.8	6.8	1.7	-7.0
COC(=O)c1cc(=O)nc2sc3cc(OC)ccc3n12	x	4.5	2.3	-1.1	-3.2
Nc1c(-c2ccccc2)cnn1C1CCS(=O)(=O)C1 (centres undefined)	-4.4	10.0	0.3	-3.4	-5.3
O=C(/C=C/c1ccccc1)NC(=S)Nc1ccc2c3c(cccc13)CC2	-1.8	-3.3	30.9	-2.6	-6.2
COCCn1c(=N)c(C(=O)NCc2ccco2)cc2c(=O)n3ccccc3nc21	x	-1.5	14.3	3.0	-0.7
CCOC(=O)c1cccc(NC(=O)N2CCOCC2)c1	0.0	3.5	5.9	0.6	2.0
CC(C)=CCCC(C)CN1CCC(N2CCC(C(=O)NC(C)C)CC2)CC1 (centres undefined)	-1.5	-0.5	-2.4	4.6	-0.2
Cc1ccc2[nH]c(=O)c(-c3noc(C(C)C)n3)cc2c1	-1.6	1.9	54.9*	-3.9	1.2
NC(=O)C(c1ccc(Cl)cc1)c1ccc(Sc2ccc(Cl)cc2)nn1 (centres undefined)	-1.3	4.2	0.0	-2.9	-1.1
O=C(Cc1cccs1)NC(c1ccccc1)c1ccccc1	0.3	-1.2	7.2	5.0	-5.3
CC(=O)N(CCC(c1ccco1)C(C)C)Cc1ccc(OC(C)C)cc1 (centres undefined)	x	-0.6	-0.2	4.5	2.4
Cn1c(=O)c2c(nc(Cl)n2Cc2ccc(Cl)c(Cl)c2)n(C)c1=O	0.6	-8.6	-3.0	3.1	-1.2

Results (from the top)
SMILES	MEX-5 binding	Fam108B inh	AHR activator	GLD-1 TGE inh	PME-1 inh
COc1ccc(C(=O)NC(=S)Nc2ccc3c4c(cccc24)CC3)cc1OC	-1.7	-3.4	14.1	-0.1	-0.7
CCOC(=O)C1CCN(Cc2ccc(OC)c(C)c2OC)CC1	-4.8	-1.4	0.4	4.3	-2.2
COc1ccc(NC(=O)c2sc(N)nc2-c2ccccc2)cc1	1.4	-1.8	17.5	2.7	-0.6
O=C(O)CCCCCCCCCC(=O)c1cccs1	-0.5	0.4	-0.5	-8.1	2.6
CC(C)c1ccc(OCC(=O)NC(=S)Nc2ccc3c4c(cccc24)CC3)cc1	-1.7	-0.1	2.6	10.4	-6.8
CCOC(=O)c1cc(C(=O)OCC)c(=O)[nH]c1N1CCCC1	2.2	1.8	6.8	1.7	-7.0
COC(=O)c1cc(=O)nc2sc3cc(OC)ccc3n12	x	4.5	2.3	-1.1	-3.2
Nc1c(-c2ccccc2)cnn1C1CCS(=O)(=O)C1 (centres undefined)	-4.4	10.0	0.3	-3.4	-5.3
O=C(/C=C/c1ccccc1)NC(=S)Nc1ccc2c3c(cccc13)CC2	-1.8	-3.3	30.9	-2.6	-6.2
COCCn1c(=N)c(C(=O)NCc2ccco2)cc2c(=O)n3ccccc3nc21	x	-1.5	14.3	3.0	-0.7
CCOC(=O)c1cccc(NC(=O)N2CCOCC2)c1	0.0	3.5	5.9	0.6	2.0
CC(C)=CCCC(C)CN1CCC(N2CCC(C(=O)NC(C)C)CC2)CC1 (centres undefined)	-1.5	-0.5	-2.4	4.6	-0.2
Cc1ccc2[nH]c(=O)c(-c3noc(C(C)C)n3)cc2c1	-1.6	1.9	54.9*	-3.9	1.2
NC(=O)C(c1ccc(Cl)cc1)c1ccc(Sc2ccc(Cl)cc2)nn1 (centres undefined)	-1.3	4.2	0.0	-2.9	-1.1
O=C(Cc1cccs1)NC(c1ccccc1)c1ccccc1	0.3	-1.2	7.2	5.0	-5.3

Retrieved one by one from the entries so far (two):
SMILES	MEX-5 binding	Fam108B inh	AHR activator	GLD-1 TGE inh	PME-1 inh
COc1ccc(NC(=O)c2sc(N)nc2-c2ccccc2)cc1	1.4	-1.8	17.5	2.7	-0.6
CCOC(=O)c1cc(C(=O)OCC)c(=O)[nH]c1N1CCCC1	2.2	1.8	6.8	1.7	-7.0

Carrying on:
SMILES	MEX-5 binding	Fam108B inh	AHR activator	GLD-1 TGE inh	PME-1 inh
CC(=O)N(CCC(c1ccco1)C(C)C)Cc1ccc(OC(C)C)cc1 (centres undefined)	x	-0.6	-0.2	4.5	2.4
Cn1c(=O)c2c(nc(Cl)n2Cc2ccc(Cl)c(Cl)c2)n(C)c1=O	0.6	-8.6	-3.0	3.1	-1.2
CN(C(=O)CCc1ccccc1)c1nnc(-c2ccncc2)s1	1.6	2.1	12.4	2.1	-6.6
COc1ccc(C2C(C(=O)O)c3ccccc3C(=O)N2Cc2ccco2)cc1 (centres undefined)	0.2	-1.5	-2.0	-3.1	-8.8
COc1cccc(N/C(SCc2cccc([N+](=O)[O-])c2)=C(/C#N)C(=O)NCc2cccs2)c1	1.0	-11.8	-0.1	9.3	0.4
O=C1OC(c2ccc(Br)cc2)=N/C1=C\N1CCCCC1	-1.1	2.9	63.0*	-7.3	1.9
CC(C)Nc1ncnc2c1cnn2-c1ccc(Cl)cc1	0.8	-3.6	-12.8	7.0	-2.9
CCCCc1c(O)nc2sc3cc(OC)ccc3n2c1=O	-0.9	4.2	5.1	3.8	1.0
COc1ccccc1NC(=O)c1sc2nc(-c3ccco3)ccc2c1N	-1.3	9.7	105.5*	-7.9	69.7*
CCOC(=O)C1CCN(Cc2cn[nH]c2-c2ccc(C)cc2)CC1	2.9	1.0	-0.4	-4.3	-3.8
C=CCn1c(CCNC(=O)c2ccccc2F)nnc1SCC(=O)Nc1ccc(OC)cc1	-0.8	-0.2	-1.9	0.1	-1.6
CCCCCn1ccc(=O)c2c(C(F)(F)F)nccc21	-0.1	3.5	-2.1	5.3	-4.2
CC(C)NC(=O)C1CCN(C2CCN(CC3CC=CCC3)CC2)CC1 (centres undefined)	1.2	2.3	-1.1	3.2	-3.5
C=CCn1c(SCC(=O)Nc2cccnc2Cl)nnc1-c1ccccc1F	0.9	-2.5	3.4	1.1	-10.9
C=CCn1c(Cc2csc(N)n2)nnc1SCC(=O)Nc1ccccc1C(F)(F)F	1.6	-3.9	0.6	2.2	-2.3
Cc1nc2ccc(NC(=O)N3CCSCC3)cc2s1	0.4	3.6	22.3	5.3	-0.1
O=c1ccn(Cc2ccc(F)cc2)c2ccnc(C(F)(F)F)c12	6.2	0.7	1.4	5.1	3.7
COc1ccc(Nc2nc(-c3ccccc3)c(C(=O)Nc3cccnc3)s2)cc1	0.2	4.1	16.8	-4.2	8.1
